Screens deposited in PubChem BioAssay by several laboratories.
VCAM-1 up imaging = enhancers of VCAM-1 display on endothelial cells, imaging, high-content imaging, pooled HUVEC, TNFa stimulus (AID 457). Pooled HUVEC, TNFa-induced VCAM-1 immunofluorescence imaging; hits of this screen are not shown here. 10,000 compounds, 0.2% hits. calls only;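 active = a top-ranked rise in VCAM-1 staining upheld on image or statistical review; inactive = the rest, including candidates rejected on review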;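 note: compounds tested at 5 µM in the well; cells exposed to compound for 24 hours before fixing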
VCAM-1 down = inhibitors of TNFa-induced VCAM-1 surface display, cell-based, plate reader, pooled HUVEC, TNFa stimulus (AID 454); 10,000 compounds, 0.2% hits; inhibition, % at 5 µM; HUVEC TNFa-induced VCAM-1 surface immunofluorescence, plate reader; numbers were filed only for top-ranked candidate wells;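 active = compound among top-ranked inhibitors of TNF-induced VCAM-1 adhesion protein staining, with the hit upheld by image or statistical review; inactive = the rest, including hits rejected on review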;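 note: 0% = TNFa with vehicle and 100% = cells without TNFa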
VCAM-1 imaging = inhibitors of TNFa-induced VCAM-1 surface display, imaging, high-content imaging, pooled HUVEC, TNFa stimulus (AID 456) | 10,000 compounds, 0.2% hits | HUVEC TNFa-induced VCAM-1 surface expression, immunofluorescence imaging; numbers were filed only for top-ranked candidate wells | inhibition, % at 5 µM, or IC50 in µM where a hit was titrated;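 active = top tenth filtered wells with inhibition above zero that passed visual or statistical confirmation; inactive = the rest, including hits rejected on review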;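 note: 0% = stimulated vehicle wells and 100% = unstimulated cells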
FPRL1 ligand = human FPRL1 ligands by binding competition, primary screen, cell-based, FPR counter-screen, flow cytometry. 24,000 compounds, 0.3% hits. N-formyl peptide receptor 2 (Homo sapiens), P25090. inhibition, %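 (tested at 6.7 µM)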. FPRL1-expressing cells, fluorescent ligand binding inhibition;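 note: 0% = buffer alone and 100% = receptor blocker peptide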
Target sequence (P25090 whole entry, looked up): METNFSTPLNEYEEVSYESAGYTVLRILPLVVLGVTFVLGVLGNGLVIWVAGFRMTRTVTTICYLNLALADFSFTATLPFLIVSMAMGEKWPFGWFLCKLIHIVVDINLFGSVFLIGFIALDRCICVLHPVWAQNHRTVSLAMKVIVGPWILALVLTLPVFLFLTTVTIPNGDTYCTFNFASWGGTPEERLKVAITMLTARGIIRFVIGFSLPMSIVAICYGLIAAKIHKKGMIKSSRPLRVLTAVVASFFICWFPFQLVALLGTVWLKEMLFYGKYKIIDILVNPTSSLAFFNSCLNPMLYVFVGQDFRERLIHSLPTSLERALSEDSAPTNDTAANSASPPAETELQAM
FPR ligand = human FPR ligands by binding competition, primary screen, cell-based, FPRL1 counter-screen, flow cytometry; inhibition, %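 (tested at 6.7 µM)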; AID 440, 2006; 24,000 compounds, 0.74% hits; FPR-expressing cells, fluorescent ligand binding;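 note: 0% = buffer wells and 100% = receptor blocker peptide wells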
Target sequence (P21462 whole entry, looked up): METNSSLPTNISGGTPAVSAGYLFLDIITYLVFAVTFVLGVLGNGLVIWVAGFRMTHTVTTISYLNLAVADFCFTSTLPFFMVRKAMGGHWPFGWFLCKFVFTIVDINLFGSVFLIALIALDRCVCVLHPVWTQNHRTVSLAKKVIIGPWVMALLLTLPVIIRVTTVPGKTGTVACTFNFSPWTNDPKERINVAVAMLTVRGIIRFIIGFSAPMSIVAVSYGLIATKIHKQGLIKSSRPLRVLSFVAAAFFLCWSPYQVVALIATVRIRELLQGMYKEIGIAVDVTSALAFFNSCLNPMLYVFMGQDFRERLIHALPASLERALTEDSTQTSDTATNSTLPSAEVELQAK
Starred values were filed as active, the others as inactive; i = inactive; . = no result given.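 Rule for the calls, unless noted: active = mean above 30%; inconclusive = self-fluorescent; inactive = the rest.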 A portion of the library (hit frequency here may not be typical).

SMILES	VCAM-1 up imaging	VCAM-1 down	VCAM-1 imaging	FPRL1 ligand	FPR ligand
Cc1nc2c(-c3ccccc3)c(C)[nH]n2c(=O)c1Cl	i	i	i	0.4	-11.7
CCOC(=O)c1csc(NC(=O)C2CCCCC2)n1	i	i	i	1.7	-10.1
O=C(CCCn1c(=O)[nH]c2cc(Cl)ccc2c1=O)NCCCN1CCCC1=O	.	.	.	8.1	1.8
Cc1c(C(=O)NCc2cccnc2)sc2ncn(CC(=O)N3CCCCC3C)c(=O)c12 (stereo not drawn)	i	i	i	-2.5	-3.5
Cc1ccc(CN2CCN(CC(=O)N3CCc4ccccc4C3)C2=O)cc1	.	.	.	-2.0	2.3
CCOc1ccc(-n2c(=O)[nH]cc(C(=O)N3CCCc4ccccc43)c2=O)cc1	.	.	.	1.0	2.0
CN1CCN(c2nc(NCCOC34CC5CC(CC(C5)C3)C4)nc(OCC(F)(F)F)n2)CC1	.	.	.	-16.6	-6.4
COc1cc(OC)c(C2C(C(=O)O)c3ccccc3C(=O)N2C)cc1OC (stereo not drawn)	.	.	.	2.6	-5.7
COc1ccc(N2CCC(CNC(=O)Nc3ccc(C)c(C)c3)C2)cc1 (stereo not drawn)	.	.	.	-0.8	0.5
CCCCOc1ccc(C(=O)Nn2cnnc2)cc1	i	i	i	1.5	-5.6
Nc1nonc1-c1noc(COc2ccccc2Cl)n1	.	.	.	6.9	-0.1
CCC(C)NC(=O)C1CCN(C(=O)N(C)C)CC1 (stereo not drawn)	.	.	.	0.3	-5.4
Cc1cc(C(=O)COC(=O)CCc2nc3ccccc3s2)c(C)n1C	i	i	i	1.5	-2.7
O=C(CSc1ncccc1C(=O)O)NCCC1=CCCCC1	.	.	.	2.7	1.8
Cc1cc2cc(CCNC(=O)c3ccc(S(=O)(=O)N4CCOCC4)cc3)c(=O)[nH]c2cc1C	.	.	.	-0.6	-5.6
CCCS(=O)(=O)N1CCCC(C(=O)N2CCN(C(=O)OCC)CC2)C1 (stereo not drawn)	.	.	.	11.6	14.7
CCN(CC)c1ccc(NC(=O)c2nc3nc(C)cc(C(F)F)n3n2)cc1	i	i	i	5.7	4.5
CSc1nc(-c2ccccc2O)nc(-c2ccccc2O)n1	.	.	.	-0.4	-6.4
COC(=O)C1=C(NC(=O)c2cccs2)CCS1	.	.	.	9.2	4.0
COc1ccc(C2CC(=O)c3cnc(NC(=O)c4ccccc4)nc3C2)cc1OC (stereo not drawn)	.	.	.	1.8	2.1
CC1CN(Cc2nc3c(c(=O)[nH]c(=O)n3C)n2CCN2CCOCC2)CC(C)O1 (stereo not drawn)	.	.	.	5.2	-1.4
O=C(NCC(c1cccnc1)N1CCOCC1)Nc1ccccc1 (stereo not drawn)	.	.	.	2.2	-2.3
CN(C)c1ccc(CNC(=O)CN(C)S(=O)(=O)c2cccc3cccnc23)cc1	.	.	.	-1.0	-8.1
CCOC(=O)Nc1c(C)n(C)n(-c2ccccc2)c1=O	.	.	.	-3.4	-21.9
CCC(=O)Nc1ccc(Cl)c(NC(=O)C(C)C)c1	i	i	i	-1.7	1.9
CCOc1ccc(OCC)c(NC(=O)C2CCCN(S(=O)(=O)c3c(C)n[nH]c3C)C2)c1 (stereo not drawn)	.	.	.	-1.0	7.0
COc1ccc(OC)c(C2C3=C(CCCC3=O)Nc3c2c(=O)n(C)c(=O)n3C)c1 (stereo not drawn)	i	i	i	-2.6	-4.1
Cc1cc(C)nc(N2CCC(C(=O)NCc3cccc(C(F)(F)F)c3)CC2)n1	i	i	i	-6.4	3.6
C=CCn1c(SCC(=O)C(C)(C)C)nnc1-c1ccccn1	i	i	i	-1.8	0.3
COCCNC(=O)c1noc2c1CCc1cc(OC)ccc1-2	.	.	.	5.4	-3.0
Cc1cccc(CSC2=NCCN2C(=O)c2ccc(Br)o2)c1	.	.	.	-2.8	-1.9
CCCCN(C)C(=O)CS(=O)(=O)Cc1nc(-c2cccc(OC)c2)oc1C	i	i	i	-6.9	1.1
CSc1ccccc1NC(=O)c1c(Br)cnn1C	i	i	i	-1.1	-3.3
Cn1cc(CC(=O)Nc2cccc(C#N)c2)c2ccccc21	i	i	i	0.4	12.1
Cc1ccccc1C1CC(c2ccc(Br)cc2)Nc2nc(N)nn21 (stereo not drawn)	.	.	.	-2.9	3.7
Cc1ccc(C(=O)NC2CC3CCCC(C2)N3C(=O)NC2CCCCC2)cc1 (stereo not drawn)	i	i	i	5.9	1.5
O=C(Cn1cc2c(n1)CCCC2)NCc1cccc(Cl)c1	.	.	.	1.3	2.7
Cc1ccc(-n2cnnn2)c2cccnc12	i	i	i	-0.6	-0.5
Cc1cccc(-n2c(=O)cc(N3CCN(c4ccc(F)cc4)CC3)[nH]c2=O)c1	i	i	i	-5.4	-5.0
COc1ccc2c(c1)CCc1c(C(=O)NCc3ccc(F)cc3)noc1-2	.	.	.	-0.5	-6.5
CCCC(=O)Nc1ccc(C(=O)O)cc1NC(=O)CCC	i	i	i	-1.3	-1.1
CN(c1ccccc1C(=O)N1CCN(c2cccc(Cl)c2)CC1)S(C)(=O)=O	i	i	i	4.1	-5.2
COCCOC(=O)C1=C(C)NC(=O)N(C(C)=O)C1c1ccc(Cl)cc1 (stereo not drawn)	.	.	.	-7.9	-5.2
CC1CCN(CCn2c(=S)[nH]c3ncccc3c2=O)CC1	i	i	i	2.6	1.7
CCc1ccc2oc(-c3cc(N)ccc3Cl)nc2c1	i	79.0	87.9%	-11.5	-6.0
CC1CCCCC1NC(=O)CC1Oc2ccccc2NC1=O (stereo not drawn)	.	.	.	7.5	-0.9
Cc1cccc(N(C)S(=O)(=O)c2ccc3[nH]c(=O)c(=O)[nH]c3c2)c1	.	.	.	-2.4	-7.8
Oc1c(Cl)cc(Cl)cc1CNc1ccc(Br)cn1	i	i	i	-4.5	-8.3
COc1ccc(S(=O)(=O)Cc2ccc(C(=O)N3CCOCC3)o2)cc1	i	i	i	1.7	-3.1
COCCCNC(=O)CCCn1c(=O)c2ccccc2n(CC(=O)Nc2c(C)cccc2C)c1=O	i	i	i	2.6	1.6
O=C(CCS(=O)(=O)c1ccc(Br)cc1)N1CCN(c2ccccc2F)CC1	.	.	.	-8.1	8.6
COc1ccc(-c2nc(C)sc2CC(=O)O)cc1	i	i	i	-9.4	-2.8
CCOc1ccccc1NC(=O)C1CCCN1C(=O)OCc1ccccc1 (stereo not drawn)	i	i	i	-6.3	0.7
CCN1C(=O)c2ccccc2S(=O)c2ccc(C(=O)N3CCCC3)cc21 (stereo not drawn)	.	.	.	11.9	12.6
CCOc1ccc(S(=O)(=O)N(C)C)cc1-c1nc2c(C(C)(C)C)nn(C)c2c(=O)[nH]1	i	i	i	8.4	-3.6
CCN(CCCNC(=O)CCNC(=O)Cn1ccc2ccccc2c1=O)c1ccccc1	i	i	i	2.6	-2.7
COc1ccc(CNC(=O)C2CC(c3ccc(F)cc3)=NO2)cc1 (stereo not drawn)	.	.	.	3.0	2.5
CC(=O)Nc1ccc(NS(=O)(=O)C(F)(F)F)cc1	i	i	i	4.4	-3.9
Cc1cc(NC(=O)C2COc3ccccc3O2)no1 (stereo not drawn)	.	.	.	0.5	-6.3
NS(=O)(=O)c1cc2c(cc1Cl)NCNS2(=O)=O	i	i	i	-4.6	5.1
(further entries)
SMILES	VCAM-1 up imaging	VCAM-1 down	VCAM-1 imaging	FPRL1 ligand	FPR ligand
Cc1ccc(-c2nnc3n2N=C(c2ccc(Br)cc2)CS3)cc1	.	.	.	-10.1	2.3
O=C(CCCN1C(=O)c2ccccc2C1=O)Oc1ccc(F)cc1	i	i	i	3.9	17.4
CCOC(=O)N1CCC(NC(=O)Cc2cn(C)c3ccccc23)CC1	.	.	.	-4.1	0.4
CCOc1cc(S(=O)(=O)Nc2ccccn2)ccc1F	i	i	i	-4.5	-4.1
COCCCNC(=O)CN1C(=O)CSc2ncccc21	.	.	.	-2.2	1.4
CCOC(=O)C1CCCN(C(=O)c2ccc(CS(=O)(=O)Cc3ccccc3C)o2)C1 (stereo not drawn)	i	i	i	-6.2	1.2
Cc1ccc(C)c(OCC(=O)Nc2cc(C)on2)c1	.	.	.	2.6	-0.6
COc1cccc(Nc2c(F)c(F)c(F)c(F)c2C(=O)O)c1	i	i	i	4.2	-1.3
O=C(Nc1ccn(Cc2ccc(F)cc2)n1)c1ccncc1	.	.	.	5.9	-7.7
CCC(Sc1nc2cc3c(cc2c(=O)n1Cc1ccco1)OCO3)C(=O)Nc1cccc(OC)c1 (stereo not drawn)	.	.	.	1.6	-3.1
Cn1c(SCc2ccccc2)nnc1C1CCCNC1 (stereo not drawn)	i	i	i	2.0	0.1
CCOC(=O)N1CCC(NC(=O)Cn2nc(Cc3ccncc3)c3ccccc3c2=O)CC1	.	.	.	6.9	0.1
O=c1sc(N2CCN(c3ccccc3F)CC2)nc2ccsc12	.	.	.	-1.7	4.3
Cc1cc(C)c2c(=O)[nH]n(C3CCOC(C)(C)C3)c2n1 (stereo not drawn)	.	.	.	-5.4	-7.8
CCOC(=O)c1c(C)c(C(=O)N2CCCCCC2)c(C)n1C	.	.	.	6.7	2.8
CCc1c(C)sc(NC(=O)c2cc(C3CC3)on2)c1C#N	.	.	.	-8.4	-1.1
CN(CCCNC(=O)C1CCC(=O)N1Cc1ccc(F)cc1)c1ccccc1 (stereo not drawn)	.	.	.	-0.6	3.5
CC(C)C(NC(=O)OC(C)(C)C)C(=O)N1CCCC1C(=O)NC(Cc1ccccc1)C(N)=O (stereo not drawn)	.	.	.	-1.6	0.3
CCC1CCCCN1C(=O)CSc1nnc(-c2ccc(OC)cc2)o1 (stereo not drawn)	i	i	i	2.8	5.0
COCCNS(=O)(=O)c1ccc2c(c1)oc(=O)c1cc(S(=O)(=O)NCCOC)ccc12	.	.	.	-0.4	5.0

A second format for some results above.
Order of values: VCAM-1 up imaging, VCAM-1 down, VCAM-1 imaging, FPRL1 ligand, FPR ligand
CCOC(=O)N1CCC(NC(=O)Cc2cn(C)c3ccccc23)CC1
 : ., ., ., -4.1, 0.4
CCOc1cc(S(=O)(=O)Nc2ccccn2)ccc1F
 : i, i, i, -4.5, -4.1
COCCCNC(=O)CN1C(=O)CSc2ncccc21
 : ., ., ., -2.2, 1.4
CCOC(=O)C1CCCN(C(=O)c2ccc(CS(=O)(=O)Cc3ccccc3C)o2)C1 (stereo not drawn)
 : i, i, i, -6.2, 1.2
Cc1ccc(C)c(OCC(=O)Nc2cc(C)on2)c1
 : ., ., ., 2.6, -0.6
COc1cccc(Nc2c(F)c(F)c(F)c(F)c2C(=O)O)c1
 : i, i, i, 4.2, -1.3
O=C(Nc1ccn(Cc2ccc(F)cc2)n1)c1ccncc1
 : ., ., ., 5.9, -7.7
CCC(Sc1nc2cc3c(cc2c(=O)n1Cc1ccco1)OCO3)C(=O)Nc1cccc(OC)c1 (stereo not drawn)
 : ., ., ., 1.6, -3.1
Cn1c(SCc2ccccc2)nnc1C1CCCNC1 (stereo not drawn)
 : i, i, i, 2.0, 0.1
CCOC(=O)N1CCC(NC(=O)Cn2nc(Cc3ccncc3)c3ccccc3c2=O)CC1
 : ., ., ., 6.9, 0.1
O=c1sc(N2CCN(c3ccccc3F)CC2)nc2ccsc12
 : ., ., ., -1.7, 4.3
Cc1cc(C)c2c(=O)[nH]n(C3CCOC(C)(C)C3)c2n1 (stereo not drawn)
 : ., ., ., -5.4, -7.8
CCOC(=O)c1c(C)c(C(=O)N2CCCCCC2)c(C)n1C
 : ., ., ., 6.7, 2.8
CCc1c(C)sc(NC(=O)c2cc(C3CC3)on2)c1C#N
 : ., ., ., -8.4, -1.1
CN(CCCNC(=O)C1CCC(=O)N1Cc1ccc(F)cc1)c1ccccc1 (stereo not drawn)
 : ., ., ., -0.6, 3.5
CC(C)C(NC(=O)OC(C)(C)C)C(=O)N1CCCC1C(=O)NC(Cc1ccccc1)C(N)=O (stereo not drawn)
 : ., ., ., -1.6, 0.3
CCC1CCCCN1C(=O)CSc1nnc(-c2ccc(OC)cc2)o1 (stereo not drawn)
 : i, i, i, 2.8, 5.0
COCCNS(=O)(=O)c1ccc2c(c1)oc(=O)c1cc(S(=O)(=O)NCCOC)ccc12
 : ., ., ., -0.4, 5.0
